KCNQ2 inh: KCNQ2 potassium channel inhibitors, primary screen, cell-based, CHO-K1, FluxOR thallium flux, B-score (AID 2156); B-score at 10 µM; 1.1% of 310,000 active; 20 min; stronger effect = lower value; only compounds with negative scores are shown here; some inactives read as strong as hits;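 active = fluorescence ratio B-score at most minus 3 library SDs, with starting brightness B-score within 2 library SDs, cut at about -5.5 in these data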
Target sequence (O88943 whole entry, looked up): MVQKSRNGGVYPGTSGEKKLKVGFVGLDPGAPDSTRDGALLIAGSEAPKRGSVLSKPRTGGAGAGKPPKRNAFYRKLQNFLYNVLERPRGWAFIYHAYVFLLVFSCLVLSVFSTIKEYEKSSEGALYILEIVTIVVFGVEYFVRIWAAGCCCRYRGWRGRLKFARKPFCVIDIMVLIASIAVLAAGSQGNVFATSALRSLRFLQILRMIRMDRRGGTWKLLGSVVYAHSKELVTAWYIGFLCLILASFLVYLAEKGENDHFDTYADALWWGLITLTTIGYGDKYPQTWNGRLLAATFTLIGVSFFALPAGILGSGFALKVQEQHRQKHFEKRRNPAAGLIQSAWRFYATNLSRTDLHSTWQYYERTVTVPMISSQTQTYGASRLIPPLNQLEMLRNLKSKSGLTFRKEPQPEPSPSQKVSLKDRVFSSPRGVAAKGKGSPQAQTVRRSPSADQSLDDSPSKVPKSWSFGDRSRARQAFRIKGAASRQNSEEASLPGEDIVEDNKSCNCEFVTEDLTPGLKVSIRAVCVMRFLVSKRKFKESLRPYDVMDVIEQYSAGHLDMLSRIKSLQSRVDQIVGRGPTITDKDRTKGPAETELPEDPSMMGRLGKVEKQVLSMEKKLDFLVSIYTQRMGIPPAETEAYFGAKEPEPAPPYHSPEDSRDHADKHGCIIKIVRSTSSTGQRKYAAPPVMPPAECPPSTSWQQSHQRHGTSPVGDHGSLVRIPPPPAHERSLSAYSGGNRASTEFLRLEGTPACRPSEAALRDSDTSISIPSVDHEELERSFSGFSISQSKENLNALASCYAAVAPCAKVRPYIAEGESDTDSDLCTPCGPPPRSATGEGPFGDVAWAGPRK
KCNQ2 inh baseline: second read-out of KCNQ2 inh, no call of its own (marks repeat the call); B-score; measured here: initial fluorescence intensity artifact check;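 brightness before thallium and not channel activity; 0 = typical well and far values either way flag optical interference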
The depositor's hits bear a star; i = inactive; & = joins results of further samples.

KCNQ2 inh	KCNQ2 inh baseline	structure
i	-0.05	Cc1nn2c(N3CCN(C4CCCC4)CC3)cc(C(C)(C)C)nc2c1-c1ccccc1
i	-2.7	O=C(CCS(=O)(=O)c1cccc2nonc12)NCCc1ccccc1Cl
i	-1.04	CN(C(=O)COc1ccc(Br)cc1Cl)C1CCCCC1
i	0.42	CSc1nc(N2CCN(Cc3ccc4c(c3)OCO4)CC2)c2ccccc2n1
i	-0.04	CCCCCCC(=O)N(O)C1CC(=O)N(c2ccccc2)C1=O (stereo unspecified)
i	0.13	COc1cccc(Nc2ccc([N+](=O)[O-])c3nonc23)c1
i	1.21	Cc1ccc2c(C(=O)CN3CCCCC3)c(C)[nH]c2c1
i	0.12	CC(=O)Nc1ccc(-c2csc(NCc3ccccc3)n2)cc1
i	1.74	Cc1nnc(SCC(=O)NC2CCCCC2)s1
i	0.29	COc1ccc(/C=C2\N=C3CCCCCN3C2=O)cc1
i	1.15	N=c1nc(-c2ccccc2)ccn1O
i	2.5	O=S(=O)(/N=C(/Nc1ccc(Cl)c(S(=O)(=O)Nc2ccccc2Cl)c1)c1ccc(F)cc1)c1ccccc1
i	-1.73	COc1ccc(-n2c(SCC(=O)N3CCN(c4ccccc4)CC3)nc3c(c2=O)SCC3)cc1
i	-0.98	CC(NC(=O)c1ccc(C(C)(C)C)cc1)C(c1cccs1)N1CCOCC1 (stereo unspecified)
i	0.62	Fc1ccc(Cn2cccc2C2=NC(c3ccccc3)CO2)cc1 (stereo unspecified)
i	-2.21	Cc1ccccc1Nc1c([N+](=O)[O-])ccc2c1=NC1(CCCCC1)N=2
i	-1.65	O=C(NCc1ccc2c(c1)OCO2)C1CC(c2ccc(Cl)c(Cl)c2)=NO1 (stereo unspecified)
i	0.29	COc1ccc(C(=O)/C=C/NCc2ccc(F)cc2)cc1OC
i	2.48	CCCOc1ccc(CSc2ncn[nH]2)cc1
i	-0.48	COc1ccc([N+](=O)[O-])cc1N(CC1CO1)S(=O)(=O)c1ccc(C)cc1 (stereo unspecified)
i	1.36	Cc1nnc(N2C(=O)C(O)=C(C(=O)c3ccco3)C2c2ccc(F)cc2)s1 (stereo unspecified)
i	1.14	CCn1nnnc1SCC(=O)NCc1ccco1
i	-0.5	CCCCC(c1nnnn1CC1CCCO1)N1CCN(c2cc(Cl)ccc2C)CC1 (stereo unspecified)
i	0.06	O=C(C[n+]1ccc(CCSc2ccc(F)cc2)cc1)c1ccccc1

2 compounds drawn at random from those above:
KCNQ2 inh	KCNQ2 inh baseline	structure
i	-0.5	CCCCC(c1nnnn1CC1CCCO1)N1CCN(c2cc(Cl)ccc2C)CC1 (stereo unspecified)
i	-1.73	COc1ccc(-n2c(SCC(=O)N3CCN(c4ccccc4)CC3)nc3c(c2=O)SCC3)cc1

Remaining list, next part
KCNQ2 inh	KCNQ2 inh baseline	structure
i	-0.92	O=C(/C(=C/c1ccccc1)n1cncn1)c1ccc(Cl)cc1Cl
i	-2.48	Cc1ccc(NC(=O)c2cc([N+](=O)[O-])ccc2N2CCCC2)cc1
i	0.17	O=C(O)CSc1nc2sc3c(c2c(=O)n1-c1ccccc1)CCC3
i	1.37	COc1ccc(C/C(O)=C(\C#N)c2nc3ccccc3[nH]2)cc1OC
i	-0.03	COC(=O)c1cccc2nc3c(C(C)O)cccc3nc12 (stereo unspecified)
i	9.01	CCN1C(=O)/C(=C/c2ccc(N3CCCC3)cc2)NC1=S
i	1.19	COc1ccc(NC(=O)CN(c2ccc(OC)c(Cl)c2)S(=O)(=O)c2ccccc2)c(OC)c1
i	0.51	COc1ccc(N(C)S(=O)(=O)c2cccc(C(=O)NCC3CCCCC3)c2)cc1
i	-1.61	COc1ccc(OC)c(NC(=O)CSc2nc3n[nH]c(C)c3c(=N)n2-c2cccc(Cl)c2C)c1
i	1.14	CC(=O)NC(Cc1ccc(C(C)C)cc1)C(=O)NC1CCN(c2nc(C)cc(C)n2)CC1 (stereo unspecified)
i	0.33	COc1ccc(/C=N/n2cncn2)cc1COc1ccc(NC(C)=O)cc1
i	0.3	O=C(O)CCC(=O)NNC(=O)c1cccs1
i	0.54	CN(C)c1cccc(C(=O)OCC(=O)N(C)c2ccccc2)c1
i	0.71	Cc1cccc(C)c1NC(=O)CNC(=O)CCC(=O)N1CCOCC1
i	0.2	COc1ccc(CCNC(=O)c2cc3c(=O)n4ccccc4nc3n(CCN3CCOCC3)c2=N)cc1
i	0.13	Cc1cccn2cc(-c3cc4ccccc4oc3=O)nc12
i	0.01	O=C(NCc1nc2ccccc2[nH]1)C1=C[C@@H](c2ccc(C(F)(F)F)cc2)C[C@@H](OCCCCO)O1
i	0.18	CCc1ccc(OCC(=O)O/N=C(\N)c2ccncc2)c(Br)c1
i	1.16	COC(=O)c1c(C)nc(C)c(C(=O)OC)c1-c1ccsc1
-6.04*	0.3*	C=CCSc1nc2ccccc2c(=O)n1C1CCOC(C)(C)C1 (stereo unspecified)
i	0.83	O=S(=O)(NCc1ccc(F)cc1)c1ccc2c(c1)OCCO2
i	0.5	Cc1ccc2c(c1)sc[n+]2Cc1ccccc1
i	0.01	CCOC(=O)c1cccc(NC(=O)CCNS(=O)(=O)c2ccc3c(c2)CCN3C(=O)CC)c1
i	0.35	Cc1cc(C(=O)CCl)c(C)n1Cc1ccco1
i	1.45	COc1cccc(CN2C(=O)[C@@H]3Cc4c([nH]c5ccccc45)C(C)(C)N3C2=O)c1
i	-1.12	Cc1ccc(N2C(=O)[C@@H]3[C@H](C2=O)[C@H]2C=C(C(=O)c4ccccc4)C=CN2[C@@H]3C(=O)c2ccc(Cl)cc2)cc1
i	-0.54	Cc1ccc(S(=O)(=O)N2CCN(C(=O)CSc3nc(N)cc(=O)[nH]3)CC2)c(C)c1
i	0.1	CCOC(=O)c1c(-c2ccc(F)cc2)csc1NC(=O)C1CCCO1 (stereo unspecified)
i	0.04	CCN1CCN(c2nc(-c3ccc(F)cc3)cc(=O)[nH]2)CC1
i	1.23	CC1=C(C(=O)NCc2ccccc2)C(c2cc(Br)cc(Br)c2OC(C)C)NC(=O)N1 (stereo unspecified)
i	0.43	Cc1cc(C)cc(NC(=O)CSCc2cnn(-c3ccccc3)c2-n2cccc2)c1
i	-1.11	COCCN(C(=O)COC(=O)C1CC1C)c1c(N)n(Cc2ccccc2)c(=O)[nH]c1=O (stereo unspecified)
i	0.57	CCOc1ncccc1C(=O)NCCN1C(=O)S/C(=C/c2cccs2)C1=O
i	-0.05	O=C(NCc1ccccc1Cl)c1cc2ccccc2oc1=O
i	1.05&0.78	O=C(Cc1cc(=O)[nH][nH]1)N/N=C/C(Cl)=C/c1ccccc1
-6.4*	0.03*	C/C(=N\NC(=O)COc1ccccc1-c1ccccc1)c1cccnc1
i	-1.35	O=[N+]([O-])c1ccc(-c2csc(N3CCc4ccccc4C3)n2)cc1
i	0.54	CCC(=O)N(Cc1cc2cc(OC)ccc2[nH]c1=O)c1ccc(C)cc1
i	-1.63	COC(=O)c1c(C)[nH]c(C(=O)NCCc2ccc(S(N)(=O)=O)cc2)c1C
i	-0.76	COc1ccc(N2CCN(C(=O)CCc3ccc(S(=O)(=O)NC(C)(C)C)cc3)CC2)cc1
i	-0.03	COc1ccc(C(=O)C2CCCN(C(=O)c3ccc(CSC)o3)C2)cc1F (stereo unspecified)
i	0.69	COc1cccc(-c2nc(CS(=O)(=O)CC(=O)NCCCc3ccccc3)c(C)o2)c1
i	-0.24	COCC(=O)NC1CCN(CC(=O)Nc2ccccc2[N+](=O)[O-])CC1
i	0.53	O=C(NCCS(=O)(=O)N1CCN(c2ccccc2F)CC1)c1ccc(F)c(F)c1
i	0.79	Cc1ccccc1OCCC(=O)Nc1ccc(S(=O)(=O)N(C)C2CCN(C)CC2)cc1
i	0.68	C/C(=N\NC(=O)c1ccc(OC2OCCOC2Oc2ccc(C(=O)N/N=C(\C)c3ccncc3)cc2)cc1)c1ccncc1 (stereo unspecified)
i	-0.59	CC(=O)Oc1cccc(N2C(=O)c3cccc4c([N+](=O)[O-])ccc(c34)C2=O)c1
i	1.13	COC(=O)c1ccc(OC(=O)c2ccccn2)cc1
i	0.52	O=C(C1=C(O)C(=O)N(CCN2CCOCC2)C1c1ccncc1)c1ccco1 (stereo unspecified)
i	0.95	O=C(NCc1ccccc1)C1CCN(S(=O)(=O)c2ccc(N3CCCC3=O)cc2)CC1
i	-0.89	COc1ccc(C(=O)NCc2ccc3c(c2)CCO3)cc1
i	1.41	COc1ccc(C(=O)OCC(=O)NC2CCCC2)c(OC)c1OC
i	-3	COc1ccc(C(C)(C)C)cc1NC(=O)CCCn1c(=O)oc2ccccc21
i	-0.49	Cc1onc(-c2c(Cl)cccc2Cl)c1C(=O)Nn1cnnc1
i	1.12	COc1ccc(C(=O)Nc2nnc(CCc3ccccc3)s2)c(OC)c1
i	2.77	CCOC(=O)N1CCN(C(=O)c2ccc([N+](=O)[O-])cc2Cl)CC1
i	-0.13	CC(CCc1ccccc1)NC(=O)CN1CCN(c2ccc(O)cc2)CC1 (stereo unspecified)
i	0.27	O=C(Cc1c(F)cccc1Cl)Nc1ccc(S(=O)(=O)N2CCOCC2)cc1
i	-0.22	CC/C(=N\n1nnnc1Nc1ccccc1)c1ccccc1
i	-0.02	Nc1c2nc(-c3ccccc3)[nH]c(=O)c2nc(=O)n1-c1ccccc1

Arranged by number of heavy atoms (smallest number first): part of the list above.
KCNQ2 inh	KCNQ2 inh baseline	structure
i	0.3	O=C(O)CCC(=O)NNC(=O)c1cccs1
i	1.14	CCn1nnnc1SCC(=O)NCc1ccco1
i	1.13	COC(=O)c1ccc(OC(=O)c2ccccn2)cc1
i	0.29	COc1ccc(/C=C2\N=C3CCCCCN3C2=O)cc1
i	0.13	COc1cccc(Nc2ccc([N+](=O)[O-])c3nonc23)c1
i	-0.22	CC/C(=N\n1nnnc1Nc1ccccc1)c1ccccc1
i	0.54	CN(C)c1cccc(C(=O)OCC(=O)N(C)c2ccccc2)c1
i	1.41	COc1ccc(C(=O)OCC(=O)NC2CCCC2)c(OC)c1OC
i	-0.02	Nc1c2nc(-c3ccccc3)[nH]c(=O)c2nc(=O)n1-c1ccccc1
-6.4*	0.03*	C/C(=N\NC(=O)COc1ccccc1-c1ccccc1)c1cccnc1
i	0.42	CSc1nc(N2CCN(Cc3ccc4c(c3)OCO4)CC2)c2ccccc2n1
i	0.53	O=C(NCCS(=O)(=O)N1CCN(c2ccccc2F)CC1)c1ccc(F)c(F)c1
i	-0.5	CCCCC(c1nnnn1CC1CCCO1)N1CCN(c2cc(Cl)ccc2C)CC1 (stereo unspecified)
i	0.69	COc1cccc(-c2nc(CS(=O)(=O)CC(=O)NCCCc3ccccc3)c(C)o2)c1
i	1.14	CC(=O)NC(Cc1ccc(C(C)C)cc1)C(=O)NC1CCN(c2nc(C)cc(C)n2)CC1 (stereo unspecified)
i	1.19	COc1ccc(NC(=O)CN(c2ccc(OC)c(Cl)c2)S(=O)(=O)c2ccccc2)c(OC)c1
i	-1.61	COc1ccc(OC)c(NC(=O)CSc2nc3n[nH]c(C)c3c(=N)n2-c2cccc(Cl)c2C)c1

Additional compounds follow.
KCNQ2 inh	KCNQ2 inh baseline	structure
i	-0.68	COc1ccccc1/C=N/OC(=O)c1ccc(C)cc1
i	-1.16	Cc1cc(-c2ccc(C)c(S(=O)(=O)NCC3CCN(Cc4cccc(F)c4)CC3)c2)on1
i	0.41	O=C(CN1CCN(c2ccccc2)CC1)c1c[nH]c2ccccc12
i	0.39	CC(C)(C)C(=O)OCc1cn(-c2ccc(Cl)cc2)nn1
i	-0.03	COC(CN(C)S(=O)(=O)c1cc2c3c(c1)CCC(=O)N3CCC2)OC
i	1.2	CC1C=CCC2C(=O)N(c3cc(Cl)ccc3O)C(=O)C12 (stereo unspecified)
i	0.5	O=C(OC(C(=O)NCc1cccs1)c1ccccc1Cl)c1ccco1 (stereo unspecified)
i	0.48	CCCc1cc(-n2ccnc2)n2c(nc3ccccc32)c1C#N
i	1.76	N#CC1=C(N)SC(N)=C(C#N)C1C1C=CCCC1 (stereo unspecified)
i	-0.81	COc1ccc(C(=O)CSc2nnc(-c3cnccn3)n2Cc2ccco2)cc1
i	0.03	O=C(/C=C/c1ccc(Br)o1)NCc1ccccc1
i	1.01	CCN1C(=O)[C@@H]2[C@@H](c3ccc(-c4cccc(Cl)c4)c(OC)c3)N3CCCC[C@@]3(C(=O)OC)[C@@H]2C1=O
i	0.79	CCc1ccc(C2c3[nH]c4ccccc4c3CCN2C(=O)c2cc[n+]([O-])cc2)cc1 (stereo unspecified)
-9.17*	-0.98*	Cc1ccc(-c2nc(-c3nccc4ccccc34)oc2-c2ccccc2)cc1
i	1.65	CCCCOC(=O)CN1C(=O)c2ccc(C(=O)OCCCC)cc2C1=O
i	1.28	COC(=O)c1cc(-c2ccccc2)on1
i	-0.22	O=C(Nc1ccc(N2CCOCC2)cc1Cl)C1CCN(C(=O)OCc2ccccc2)CC1
i	0.21	Cc1sc(NC(=O)c2ccc(OCC(C)C)cc2)c(C(N)=O)c1-c1ccc(Cl)cc1Cl
i	-0.2	O=C(O)CCC(NC(=O)C1CCCN1C(=O)OCc1ccccc1)C(=O)O (stereo unspecified)
i	0.48	COc1ccc(NS(=O)(=O)c2ccc(NC(=S)NC(=O)CC(C)C)cc2)cc1
i	-0.32	CCn1c(C)nc2cc(C(=O)N=Nc3c(O)[nH]c4c(C)cc(C)cc34)ccc21
i	-0.04	CCc1ccc(NC(=O)Cn2nc(C(F)(F)F)c3c2CCC3)cc1
i	0.21	Cc1ccc(C2CC(=O)Nc3sc(C(N)=O)c(N)c32)cc1 (stereo unspecified)
i	0.89	O=C1N(c2ccc(Cl)c(Cl)c2)CN(Cc2ccccc2)CN1n1cnnc1
-8.57*	-1.47*	Cc1ccc(S(=O)(=O)N(C)c2ccccc2C(=O)Nc2ccc(F)cc2F)cc1
i	-1.03	CN(C(=O)CCn1c(=S)oc2ccccc21)c1ccc(F)cc1
i	-0.03	Cc1ccc(N(C(=O)Cn2nnc3ccccc32)C(C(=O)NCc2ccccc2)c2ccccn2)cc1 (stereo unspecified)
-5.61*	0.9*	Cc1ccc(O)c(Nc2c3ccccc3nc3ccccc23)c1
i	27.9	C=CCn1c(C)c(/C=C/c2cc[n+](C)cc2)c2ccccc21
i	0.02	CCN(CC)CCNc1nc2ccccc2n1C
i	-1.06	Cc1ccc(Cn2nnnc2CN2CCC(NC(=O)c3ccccc3F)CC2)cc1

Only part of the results is shown (hit frequency here may not be typical).
